Screening results deposited in PubChem by several laboratories.
RanGTP-Impb inh: disruptors of Ran-importin-beta complex formation – biochemical, FRET, CFP-Ran, YFP-importin-beta, homogeneous, primary screen; cell-free CFP-Ran/YFP-importin-beta FRET ratio; inhibition, % (test concentration not listed); hit rate 1.1% among 300,000; AID 2216;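 active = most replicates above 15%; inconclusive = exactly half above 15%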;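 note: 0% = DMSO wells and 100% = Ran loaded with GDP instead of GTP; wells of about 40 µL received 100 nL stock; the first replicate is given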
T cruzi repl: T. cruzi replication inhibition | T. cruzi beta-gal in NIH3T3, luminescence, 90 h | inhibition, % (no concentration beside the values) | hit rate 1.4% among 300,000 | AID 1885;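 active = mean inhibition across valid replicates above about 55%, limit read from the data; inconclusive = mean below that limit but half or more replicates reach it; inactive = mean below it, under half of replicates reach it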;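 note: signal also drops with host cell toxicity which is not excluded here; 0% = plate median of DMSO wells and 100% = zero luminescence signal; higher percent means less beta-gal luminescence so fewer parasites; stock transfer was 50 nL into about 50 µL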
Calb FLC: C. albicans growth modulation with fluconazole | C. albicans CaCi-2 (fluconazole-resistant clinical isolate) + fluconazole, Alamar Blue growth, 48 h | growth inhibition, % (concentration not given with the values) | hit rate 0.57% among 300,000;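 active = most replicates above 75%; inconclusive = exactly half above 75%; inactive = most below 75%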;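 note: all wells also contain fluconazole at 8 µg/ml as a sub-toxic cotreatment; 0% = median of DMSO wells and 100% = median of geldanamycin control wells; wells of about 8 µL received 7.5 nL stock; the first replicate is given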
A1 inh: inhibitors of the anti-apoptotic protein A1, read as caspase activation | hit rate 0.066% among 330,000 | AID 2462 | MEF A1-2A-BIM cells, Caspase-Glo 3/7 luminescence, 3 h; percent of clofoctol response, vehicle zero | caspase activation, % (concentration not given with the values);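 active = over half of replicate activation scores above 10%, or exactly half above 10 with the replicate mean above 10; inconclusive = replicate mean below 10 yet half the replicates above 10; inactive = over half of replicates below 10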;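 note: wells of about 30 µL received 50 nL stock; many hits fall short of the cut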
Beta apoptosis: beta cell apoptosis inhibition; AID 435005; INS-1E cytokine-induced death, ATP luminescence, 48 h; percent of positive-control rescue, neutral wells zero; hit rate 0.8% among 300,000; protection from apoptosis, % (test concentration not listed);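 active = all replicates at 75% or more, or half of them and the mean; inconclusive = half reach 75% but not the mean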;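 note: 0% = cytokine-treated negative control wells and 100% = positive control rescue; higher means more ATP so stronger rescue from cytokine killing; wells of about 40 µL received 100 nL stock; the first replicate is given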
LANA-H2B inh: blocks KSHV LANA binding to histone H2A/H2B. cell-free LANA-H2A/H2B peptide, fluorescence polarization. inhibition, % (concentration not given with the values). AID 2629. Q9QR71. hit rate 0.6% among 320,000; in the data active = inhibition mostly above about 10%, no sharp cut-off; inactive = mostly below about 6.7%;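 note: stock transfer was 7.5 nL into about 10 µL; 0% = median of vehicle wells and 100% = median of positive control wells; one replicate is shown; the record names a cut of 25% in any replicate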
UCH37 DUB inh: blocks the human deubiquitinase UCH37 | Q9Y5K5 | purified proteasome/UCH37, Ub-AMC cleavage fluorescence | inhibition, % (no concentration beside the values) | hit rate 0.33% among 330,000 | AID 588478;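 active = mean of two replicates above 20%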;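 note: 0% = compound-free wells with enzyme and 100% = wells lacking proteasome; stock transfer was 100 nL into about 20 µL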
Target sequence (Q9Y5K5 whole entry, looked up): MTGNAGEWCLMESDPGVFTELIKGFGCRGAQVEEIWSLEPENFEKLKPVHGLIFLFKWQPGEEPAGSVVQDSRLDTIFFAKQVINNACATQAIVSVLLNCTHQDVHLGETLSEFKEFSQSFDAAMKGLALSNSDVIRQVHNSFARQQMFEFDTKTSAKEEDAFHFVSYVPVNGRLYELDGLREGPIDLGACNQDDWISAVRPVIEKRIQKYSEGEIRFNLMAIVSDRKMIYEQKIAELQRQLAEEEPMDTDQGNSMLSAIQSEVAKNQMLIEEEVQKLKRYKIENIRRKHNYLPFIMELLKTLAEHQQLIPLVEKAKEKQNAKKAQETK
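Signal – fluorescence, ex 355 nm, em 460 nm · System – Proteasome-bound UCH37 · Input – 0.15 nM proteasome as dispensed · Timing – 30 min preincubation with enzyme, 25 min cleavage at room temperature · Read-out basis – percent inhibition of cleavage signal versus uninhibited and no-proteasome wells · Medium – Tris-HCl pH 7.4 with ATP-MgCl2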
Beta2AR agonist: agonists of human beta-2 adrenergic receptor inducing internalization; Am2.2-beta2AR cells, FAP receptor internalization, flow cytometry; reference of the scale not given here; response, % (no concentration beside the values); hit rate 0.43% among 340,000;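 active = response above a set limit, near 3 SD of response in nonfluorescent compounds, cut at about 42% in these data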;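 note: stock transfer was 100 nL into about 11 µL; a reference agonist was the positive control; negative values mostly stem from fluorescent compounds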
Target sequence (P07550 whole entry, looked up): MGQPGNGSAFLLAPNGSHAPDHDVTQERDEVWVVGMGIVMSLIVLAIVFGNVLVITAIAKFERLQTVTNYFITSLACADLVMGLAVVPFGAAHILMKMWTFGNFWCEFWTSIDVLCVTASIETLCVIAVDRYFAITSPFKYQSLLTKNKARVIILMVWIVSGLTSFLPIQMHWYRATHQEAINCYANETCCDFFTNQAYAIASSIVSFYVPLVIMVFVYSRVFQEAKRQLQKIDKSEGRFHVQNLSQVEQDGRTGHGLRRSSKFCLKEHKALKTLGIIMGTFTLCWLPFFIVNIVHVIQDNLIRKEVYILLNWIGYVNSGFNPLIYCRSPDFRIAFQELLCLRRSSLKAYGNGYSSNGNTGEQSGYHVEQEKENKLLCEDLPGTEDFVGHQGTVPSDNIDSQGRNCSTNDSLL
Numbers without * were called inactive; i = inactive; ? = inconclusive; · = not tested or not shown.

Value order – T cruzi repl	RanGTP-Impb inh	LANA-H2B inh	Beta2AR agonist	Beta apoptosis	UCH37 DUB inh	Calb FLC	A1 inh
[1] COc1ccc(OC)c2sc(N(CCCN(C)C)C(=O)c3ccc(S(=O)(=O)N4CCc5ccccc5C4)cc3)nc12
→ 60*	-20	-7.8	·	100*	·	12	?
[2] CCCCC(=O)NC1(C(F)(F)F)C(=O)Nc2c1c(=O)n(C)c(=O)n2C (stereo not given)
→ -18	-0.5	0.7	0	2	2.4	11	-0.4
[3] O=C1c2nc3cc(-c4ccco4)[nH]n3c(=O)c2CN1C1CCCCC1
→ 9	-4.6	-1.0	0	2	i	-18	-0.7
[4] CC(C)OCCCNC(=S)NNC(=O)C(c1ccccc1)c1ccccc1
→ -13	0.0	-0.8	1	-2	1.2	25	2.2
[5] Nn1c(SCC(=O)NC2CCCCC2)nnc1-c1ccccc1F
→ ·	·	2.4	-28	6	-0.1	·	1.1
[6] O=C(NCCc1ccccc1)c1ccco1
→ -19	?	-3.7	1	-8	0.9	5	0.9
[7] CCCCCC(=O)NNC(=O)c1c(O)c2ccccc2n(CC)c1=O
→ -9	3.2	-0.6	28	-1	1.3	36	0.4
[8] Cc1ccc(SCC(=O)OCC(=O)NC(C)c2ccc(F)cc2)cc1 (stereo not given)
→ ·	·	-3.9	0	-2	0.1	·	-1.4
[9] CC(=O)Nc1ccc(NC(=O)C(C)OC(=O)C2CCC2)cc1 (stereo not given)
→ -9	-0.3	1.8	1	1	-1.6	2	0.4
[10] CCOc1cc(/C=C2/C(=O)ON=C2C)ccc1OCc1ccccc1F
→ 0	1.2	-4.4	77*	6	4.5	38	0.2
[11] CC(C)(C)OC(=O)C[C@@H]1C/C=C\C[C@H](CC(=O)N[C@H](CO)Cc2ccccc2)C(=O)N2CCC[C@H]2COC1=O
→ ·	·	-3.8	1	-6	0.0	·	1.1
[12] CCCCOc1ccccc1C1C(C(N)=O)=C(C)Nc2nnnn21 (stereo not given)
→ 0	0.1	-0.5	-2	·	5.3	8	-0.8
[13] CCCCNC(=O)N(C)c1nncnc1C(=O)NC
→ -5	1.0	0.0	5	-2	0.3	-1	0.6
[14] Cc1nnc2n(-c3ccccc3)c(=O)c3c4c(sc3n12)CCCC4
→ -4	-5.9	-1.2	-22	0	3.1	?	-0.2
[15] Cc1cc(C)c2sc(N(CCCN(C)C)C(=O)c3ccc(S(=O)(=O)N(C)C4CCCCC4)cc3)nc2c1
→ 55*	1.8	-2.7	40	·	2.2	-4	0.7
[16] COc1ccc(C)cc1NC(=O)CCS(=O)(=O)c1cccc2nonc12
→ 6	-1.6	-1.0	-2	-11	1.5	-25	1.7
[17] Fc1ccc(CSc2ncnc3c2oc2ccccc23)cc1
→ ·	·	-3.1	-10	4	0.0	·	-0.9
[18] Cc1cccc(NC(=O)c2ccc([N+](=O)[O-])o2)c1
→ 41	-5.0	1.3	17	-26	3.9	83*	-2.0
[19] Cn1cccc1/C=C1\SC(=S)N(Nc2ccccc2)C1=O
→ 64*	-6.1	-6.1	-2	15	4.3	7	-1.4
[20] O=C(CCCN1C(=O)/C(=C/c2ccccc2)SC1=S)N1CCOCC1
→ -8	2.5	4.7	-2	-20	7.6	10	-0.7
[21] COc1cc(C(=O)N2CCN(c3cccc(C)c3C)CC2)cc(OC)c1OC
→ -18	8.7	3.0	16	23	0.1	7	2.1
[22] Cc1ccc(CC(=O)Nc2ccc([N+](=O)[O-])cc2C)cc1
→ -8	0.1	-1.4	-7	0	2.2	-10	-2.6
[23] COc1cc(Cl)c(NC2=CC(=O)C(=O)c3ccccc32)c(OC)c1
→ ·	·	0.3	22	105*	54*	·	0.1
[24] O=C(Nc1ccnn1C1CCN(Cc2ccccc2)CC1)C1CCCC1
→ 3	-1.0	9.2	-1	-18	3.5	1	0.2
[25] CC(C)c1ccc(NC(=O)COC(=O)/C=C/c2cccc([N+](=O)[O-])c2)cc1
→ -18	-1.2	-3.5	4	2	0.4	2	-0.1
[26] CN(C(=O)c1ccc2c(c1)OCO2)C1(C(=O)NC2CCCCC2)CCCCC1
→ -1	5.6	3.7	7	3	1.6	-3	1.2
[27] Cc1ccc(N=C(NO)c2nonc2N)cc1
→ -4	1.7	1.3	0	-3	5.3	?	2.1
[28] O=C(NCc1ccc2c(c1)OCO2)c1cccc(S(=O)(=O)N2CCCCC2)c1
→ 0	3.7	0.1	9	-2	4.5	-17	1.0
[29] O=C(NCCNC(=O)c1ccccn1)c1ccc(Cl)cc1
→ -4	-3.9	-5.6	-4	·	3.7	2	-0.7
[30] Cc1ccccc1S(=O)(=O)NCc1ccc(N2CCN(C)CC2)cc1
→ 30	?	-5.8	0	-18	1.5	13	-0.5
[31] CCCCOc1ccc(C(=O)NCC(=O)NNC(=O)C2COc3ccccc3O2)cc1 (stereo not given)
→ ·	·	-1.3	-3	-3	-1.3	·	0.0
[32] CCOP(=O)(OCC)c1nc(-c2ccc(Cl)cc2Cl)oc1N1CCOCC1
→ 4	-4.3	1.6	-17	5	-17	2	0.3
[33] COc1cc(C(=O)O)cc(Br)c1OC1CCCC1
→ 7	2.1	-1.0	6	·	0.4	34	1.2
[34] OCCCc1cn(-c2ccccc2)c2ccccc12
→ -4	-2.1	-1.9	1	-10	0.6	-11	1.9
[35] CC(=O)Nc1ccc(OCC(O)CN2CCN(c3ccccc3Cl)CC2)cc1 (stereo not given)
→ -1	-2.4	5.6	-3	0	0.8	-56	2.9
[36] CCN1C(=O)CC(C(=O)NCCc2ccc(S(N)(=O)=O)cc2)SC1=Nc1ccc(OC)cc1 (stereo not given)
→ 4	-2.0	0.6	3	-1	4.6	-2	-0.7
[37] Cc1cccc(CN2C[C@]34C=C[C@@H](C[C@@H]3S2(=O)=O)O4)c1
→ -14	3.5	7.4	-1	-3	1.8	-8	0.1
[38] CC1(C)C(=O)OC(c2c3ccccc3cc3ccccc23)C(C)(C)C1=O (stereo not given)
→ 11	?	0.7	11	1	-100	16	2.6
[39] COc1ccc(/C=N/N=C2/NC(=O)CC(C(=O)O)S2)cc1 (stereo not given)
→ -5	1.9	1.0	4	-4	·	0	-1.9
[40] COc1ccccc1CN1C[C@@H]2C[C@@H](c3ccc(C)c(C)c3)N3CCC[C@@]23C1=O
→ 68*	4.1	-2.7	18	0	3.8	-19	0.5
[41] CCOC(=O)CCNC(=O)Nc1ccc2nc(C)n(Cc3ccc(Cl)cc3)c(=O)c2c1
→ 8	6.7	-6.5	11	-12	-1.3	18	-0.8
[42] COc1ccc(Cc2nc(-c3ccc(Cl)cc3)no2)cc1
→ -3	-3.9	-3.4	0	4	1.6	10	0.4
[43] CCCCn1c(N)c(N(CCOC)C(=O)c2ccc(S(=O)(=O)N(CC)c3ccccc3)cc2)c(=O)[nH]c1=O
→ -4	-0.2	2.2	-3	-2	-0.2	4	0.7
[44] Cc1noc(C)c1S(=O)(=O)Nc1ccc2c(c1)C(=O)N([C@H](C)CO)C[C@H](C)[C@@H](CN(C)S(=O)(=O)c1ccc(F)cc1)O2
→ ·	·	-0.1	-1	0	-0.2	·	0.4
[45] NC(=O)c1cccc(S(=O)(=O)N2CCCCC2)c1
→ 0	5.9	-0.6	20	-6	3.4	-12	-0.1
[46] Cc1ccc(S(=O)(=O)N2CCN(Cc3ccccc3)CC2)cc1
→ 3	3.3	-3.0	-1	-4	1.1	-2	1.0
[47] COC(=O)COc1cccc2c(=O)n(CC(=O)NCc3ccc(F)cc3)ccc12
→ -35	5.3	2.4	4	5	2.3	-4	1.2
[48] CN(C)S(=O)(=O)Oc1ccsc1C(=O)Nc1ccc(C(F)(F)F)cc1
→ 18	5.0	1.1	1	-3	4.1	-8	0.3

In the list so far, nine have an aryl methoxy group.
Value order – T cruzi repl	RanGTP-Impb inh	LANA-H2B inh	Beta2AR agonist	Beta apoptosis	UCH37 DUB inh	Calb FLC	A1 inh
[1] COc1ccc(OC)c2sc(N(CCCN(C)C)C(=O)c3ccc(S(=O)(=O)N4CCc5ccccc5C4)cc3)nc12
→ 60*	-20	-7.8	·	100*	·	12	?
[16] COc1ccc(C)cc1NC(=O)CCS(=O)(=O)c1cccc2nonc12
→ 6	-1.6	-1.0	-2	-11	1.5	-25	1.7
[21] COc1cc(C(=O)N2CCN(c3cccc(C)c3C)CC2)cc(OC)c1OC
→ -18	8.7	3.0	16	23	0.1	7	2.1
[23] COc1cc(Cl)c(NC2=CC(=O)C(=O)c3ccccc32)c(OC)c1
→ ·	·	0.3	22	105*	54*	·	0.1
[33] COc1cc(C(=O)O)cc(Br)c1OC1CCCC1
→ 7	2.1	-1.0	6	·	0.4	34	1.2
[36] CCN1C(=O)CC(C(=O)NCCc2ccc(S(N)(=O)=O)cc2)SC1=Nc1ccc(OC)cc1 (stereo not given)
→ 4	-2.0	0.6	3	-1	4.6	-2	-0.7
[39] COc1ccc(/C=N/N=C2/NC(=O)CC(C(=O)O)S2)cc1 (stereo not given)
→ -5	1.9	1.0	4	-4	·	0	-1.9
[40] COc1ccccc1CN1C[C@@H]2C[C@@H](c3ccc(C)c(C)c3)N3CCC[C@@]23C1=O
→ 68*	4.1	-2.7	18	0	3.8	-19	0.5
[42] COc1ccc(Cc2nc(-c3ccc(Cl)cc3)no2)cc1
→ -3	-3.9	-3.4	0	4	1.6	10	0.4
